# Compound activity from PubChem.
# POLK inh – DNA polymerase kappa (human) inhibition; purified Pol kappa, fluorescent DNA synthesis assay, 10 min; AID 588579; Potency, µM (highest dose often 107 µM), inactives show at the top dose activity, negative = inhibition, usual class: inhibitors; Q9UBT6; hit rate 0.53% among 400,000; note: % is set by controls: 0 for no effect and ±100 for the full control effect
#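 Enzyme at 10 nM met test compounds for 15 min at room temperature. Substrate addition (50 nM final) began the reaction, which was monitored by fluorescence at 0 and 10 min.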
# ERG Ets-DNA blk – blocks human ERG Ets domain binding to DNA; hit rate 0.028% among 370,000; Potency, µM (highest dose often 76.9 µM), for the others: at the highest dose FP activity, negative = inhibition, hits mostly inhibitors; fluorescence polarization, His-ERG Ets domain / labelled DNA; AID 624246; P11308; active = well fitted inhibition curve with a large enough effect in the polarisation, with a control signal flat; inconclusive = small, poorly fitted or top-dose-only effect, or effect the other way, or a change in a side signal; inactive = no such curve, though single readings can be large or run the other way; the % refers to the polarisation;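 note: polarization taken with two DNA probes labelled with fluorescein and Texas red; % of control where 0% means no effect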
# Target sequence (P11308 whole entry, looked up, the tested form may be a part): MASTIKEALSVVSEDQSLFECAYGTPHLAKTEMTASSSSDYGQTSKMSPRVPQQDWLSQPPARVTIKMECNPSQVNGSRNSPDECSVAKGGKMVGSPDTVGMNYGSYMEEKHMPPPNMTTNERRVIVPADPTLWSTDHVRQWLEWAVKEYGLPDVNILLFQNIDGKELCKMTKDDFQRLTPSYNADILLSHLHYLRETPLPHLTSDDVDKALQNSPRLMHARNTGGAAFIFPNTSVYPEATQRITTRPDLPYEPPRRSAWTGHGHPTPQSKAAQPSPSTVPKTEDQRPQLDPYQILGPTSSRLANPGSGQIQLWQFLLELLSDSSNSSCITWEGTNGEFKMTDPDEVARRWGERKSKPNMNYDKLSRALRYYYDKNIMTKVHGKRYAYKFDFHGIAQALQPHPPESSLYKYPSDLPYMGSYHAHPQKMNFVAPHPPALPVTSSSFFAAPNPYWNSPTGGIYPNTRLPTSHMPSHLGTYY
#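 His-tagged ERG Ets domain (1 uM in the protein solution; 300mM KCl, 50mM Tris-HCl, 1mM EDTA, 1mM DTT, pH 7.5) received compound, then a probe mix of 5 nM fluorescein-DNA and 100nM Texas-615-DNA. Fluorescence polarization was read for both dyes.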
# POLI inh – DNA polymerase iota (human) inhibition. AID 588590. Pol iota fluorescent replication assay, 10 min. Potency, µM (series often up to 115 µM), inactives show top-dose activity, negative = inhibition, hits mostly inhibitors. Q9UNA4. hit rate 1% among 390,000
#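 Pol iota at 10 nM preincubated 15 min with compounds at room temperature; reaction started with fluorescent substrate, 50 nM final. Fluorescence read kinetically at 0 and 10 min; buffer-only wells as negative control.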
# BLM inh – blocks DNA unwinding by human BLM helicase; P54132; recombinant BLM DNA unwinding, fluorescence dequenching; Potency, µM (titrated, usually from 56.1 µM), for inactives: top-dose activity change, negative = inhibition, most hits filed as inhibitors; hit rate 0.2% among 350,000;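 note: plate controls were vehicle for no effect and no enzyme for full effect; nearly all actives have a fitted effect of over 35% in size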
# APE1 inh – APE1 (human) endonuclease inhibition; hit rate 0.35% among 350,000; recombinant APE1, TAMRA/BHQ-2 abasic DNA cleavage fluorescence; Potency, µM (top dose mostly 65.8 µM), for inactives: top-dose activity change, negative = inhibition, hits mostly inhibitors;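 note: plate controls were vehicle for no effect and reference inhibitor for full effect; nearly all actives have a fitted effect of over 55% in size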
#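 APE1 at 0.75 nM preincubated 15 min at room temperature with compound. Reaction then started with 50 nM double-stranded THF-abasic substrate labelled with TAMRA/BHQ-2, and 525/598 nm fluorescence read kinetically. Activity taken as third-minus-first read difference, normalized to DMSO and NSC13755 controls.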
# Starred values were filed as active, the others as inactive; u = inconclusive; x = no result given; & = joins results of further samples; [ ] = remark or other dose. Unless noted, calls come from the whole dose curve; as a rule, active = well fitted curve in the direction sought with a large enough effect; inconclusive = small, poorly fitted or top-dose-only effect, or another doubt; inactive = no such curve, though single readings can be large; an effect the other way counts as inactive or inconclusive. Potency is the fitted concentration of half-maximal effect.
No. | structure | POLK inh | ERG Ets-DNA blk | POLI inh
1 | CC(=O)[C@@H]1CC[C@H]2[C@H]3CC[C@H]4C[C@@H](O)CC[C@]4(C)[C@@H]3C(=O)C[C@@]12C | -5%[12 µM] | x | x
2 | C=C(C)[C@@H]1CC[C@]2(C(=O)O)CC[C@]3(C)C(CCC4[C@@]5(C)CC[C@H](O)C(C)(C)C5CC[C@]43C)C12 (stereo partly drawn) | 13% | 0% | 24%
3 | O=C(c1cccc([N+](=O)[O-])c1)C12CN3CN(CN(C3)C1)C2 | -5% | 4% | 64%[activator]
4 | C=C(C)[C@@H]1CC[C@]2(C(=O)O)CC[C@]3(C)[C@H](CC[C@@H]4[C@@]5(C)CC[C@H](O)C(C)(C)[C@@H]5CC[C@]43C)[C@@H]12 | 11% | 2% | 1%
5 | O=S(=O)(c1ccc(Cl)cc1)N1CC1c1ccccc1 (stereo not drawn) | -14% | x | -9%
6 | CC(=O)N1CCN(c2ccc(OC[C@H]3CO[C@](Cn4ccnc4)(c4ccc(Cl)cc4Cl)O3)cc2)CC1 | u | 17% | 0%
7 | CC[C@@H]1CN2CCc3cc(OC)c(OC)cc3[C@H]2C[C@@H]1C[C@H]1NCCc2cc(OC)c(OC)cc21 | -2%[12 µM] | x | x
8 | CCOC(=O)c1cc(CC)sc1/N=C/C1C(=O)NC(=S)NC1=O | -1% | 16% | u
9 | C[C@]12CC[C@H](O)C[C@H]1CC[C@@H]1[C@@H]2CC[C@]2(C)C(=O)CC[C@@H]12 | 0% | 11% | 29%

No. | BLM inh | APE1 inh
1 | 2%[21.4 µM] | 0%[21 µM]
2 | -6% | -3%
3 | -3% | -5%
4 | -2% | 5%
5 | -2% | 2%
6 | -2%&-9%&-8%&-1% | 2%
7 | 2%[21.4 µM] | -2%[21 µM]
8 | -1% | -5%
9 | x | 23%

# Molecules from the list above with a halogen (two):
No. | structure | POLK inh | ERG Ets-DNA blk | POLI inh
5 | O=S(=O)(c1ccc(Cl)cc1)N1CC1c1ccccc1 (stereo not drawn) | -14% | x | -9%
6 | CC(=O)N1CCN(c2ccc(OC[C@H]3CO[C@](Cn4ccnc4)(c4ccc(Cl)cc4Cl)O3)cc2)CC1 | u | 17% | 0%

No. | BLM inh | APE1 inh
5 | -2% | 2%
6 | -2%&-9%&-8%&-1% | 2%

# A different layout for 4 compounds above.
cpd | mol | POLK inh | ERG Ets-DNA blk | POLI inh | BLM inh | APE1 inh
9 | C[C@]12CC[C@H](O)C[C@H]1CC[C@@H]1[C@@H]2CC[C@]2(C)C(=O)CC[C@@H]12 | 0% | 11% | 29% | x | 23%
6 | CC(=O)N1CCN(c2ccc(OC[C@H]3CO[C@](Cn4ccnc4)(c4ccc(Cl)cc4Cl)O3)cc2)CC1 | u | 17% | 0% | -2%&-9%&-8%&-1% | 2%
2 | C=C(C)[C@@H]1CC[C@]2(C(=O)O)CC[C@]3(C)C(CCC4[C@@]5(C)CC[C@H](O)C(C)(C)C5CC[C@]43C)C12 (stereo partly drawn) | 13% | 0% | 24% | -6% | -3%
3 | O=C(c1cccc([N+](=O)[O-])c1)C12CN3CN(CN(C3)C1)C2 | -5% | 4% | 64%[activator] | -3% | -5%

# These rows are one share of the data; count on the stated rates, not on these rows.
